GLA inh pH 4.5: qHTS Assay for Inhibitors of Human alpha-Galactosidase at pH 4.5; Alpha-galactosidase A (Homo sapiens), P06280; activity change, negative = inhibition, % at 105 µM; 230,000 tested, under 10 active; purified enzyme, 4-MU-alpha-Gal fluorescence, pH 4.5; inconclusive = small, poorly fitted or top-dose-only inhibition, or a rising curve; inactive = flat fitted curve, though single readings scatter; no compound was filed as active;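 also: 0% = full activity with enzyme and -100% = basal without enzyme; dose as in the result columns while the protocol names 77 µM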
Rango dissoc inh: qHTS Assay for Inhibitors of RanGTP induced Rango (Ran-regulated importin-beta cargo) - Importin beta complex dissociation; Biochemical FRET Rango-importin beta, RanGTP-induced dissociation; Potency, µM (titrated, usually from 46.1 µM), for inactives: top-dose activity change, negative = inhibition; actives 0.071% (n = 340,000); Snurportin-1 (Homo sapiens) + GTP-binding nuclear protein Ran (Homo sapiens) + Importin …; active means falling FRET ratio curve, often poorly fitted, with flat reads before Ran was added; inconclusive means other falling curves, or compound fluorescence or quenching; inactive means flat or rising ratio curve;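 also: potency is read from the fitted curve at half-maximal effect; % of control where 0% means no effect; nearly all actives have a fitted effect of over 45% in size; -100% = wells without RanGTP and RCC1; the record marks most hits as doubtful in a second field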
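Rango (0.1 uM)–importin beta (0.25 uM) complex; RanGTP-RCC1 trigger; 45 min RT; CFP/YFP FRET read.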
miR-21 reporter: qHTS Assay for Modulators of miRNAs and/orActivators of miR-21; Potency, µM (titrated, usually from 38.3 µM), for inactives: top-dose reporter change, positive = more light; 340,000 tested, under 10 active; HeLa miR-21 FLuc reporter, luciferase, 48 h; active = well fitted rising curve with a large enough effect; inconclusive = small, poorly fitted or top-dose-only effect; inactive = no such curve, though single readings can be large or run the other way;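 also: % of control where 0% means no effect; miR-21 action dims this reporter so a rising signal means less miR-21 action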
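Luminescence from a firefly luciferase reporter carrying a miR-21 binding site downstream, stably expressed under a CMV promoter in HeLa cells that make miR-21 endogenously, reports miRNA modulation after 48 h compound exposure up to approximately 40uM final.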
Rango complex inh: qHTS Assay for Inhibitors of Rango (Ran-regulated importin-beta cargo) - Importin beta complex formation; Rango CFP/YFP FRET sensor + importin beta, 45 min; Potency, µM (highest dose often 92.2 µM), without a hit: at the highest dose inhibition of complex formation; actives 0.031% (n = 340,000); AID 540263, 2011; active = rising FRET ratio curve, often small or poorly fitted; inconclusive = mostly compound fluorescence or quenching in the first reads; inactive = flat curves in all reads;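 also: potency is read from the fitted curve at half-maximal effect; 0% = DMSO wells and 100% = buffer wells lacking importin beta; nearly all actives have a fitted effect of over 15% in size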
Target sequence (Q14974 whole entry, looked up): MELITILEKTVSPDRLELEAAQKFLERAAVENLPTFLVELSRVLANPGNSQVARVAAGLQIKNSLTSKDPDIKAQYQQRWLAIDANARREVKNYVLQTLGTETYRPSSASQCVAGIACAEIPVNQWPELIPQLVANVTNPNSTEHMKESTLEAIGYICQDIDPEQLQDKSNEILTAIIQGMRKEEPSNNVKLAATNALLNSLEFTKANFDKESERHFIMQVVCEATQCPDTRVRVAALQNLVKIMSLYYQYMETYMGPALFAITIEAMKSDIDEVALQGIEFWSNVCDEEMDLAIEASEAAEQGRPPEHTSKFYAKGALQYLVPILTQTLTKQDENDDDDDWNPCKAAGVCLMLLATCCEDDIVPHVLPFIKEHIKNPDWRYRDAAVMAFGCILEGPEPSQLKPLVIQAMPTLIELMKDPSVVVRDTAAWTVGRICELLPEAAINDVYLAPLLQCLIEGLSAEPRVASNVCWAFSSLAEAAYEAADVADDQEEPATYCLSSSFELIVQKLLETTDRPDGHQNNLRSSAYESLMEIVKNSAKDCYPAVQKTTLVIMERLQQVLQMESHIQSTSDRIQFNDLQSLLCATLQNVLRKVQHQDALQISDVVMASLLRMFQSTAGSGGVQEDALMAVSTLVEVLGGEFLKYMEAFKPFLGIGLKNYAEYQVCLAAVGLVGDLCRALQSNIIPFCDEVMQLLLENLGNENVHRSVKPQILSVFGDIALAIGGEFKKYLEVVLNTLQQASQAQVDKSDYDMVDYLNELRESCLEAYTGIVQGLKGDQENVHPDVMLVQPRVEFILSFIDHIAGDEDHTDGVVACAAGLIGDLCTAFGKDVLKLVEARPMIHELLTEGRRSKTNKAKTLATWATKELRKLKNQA
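FRET biosensor Rango (snurportin 1 IBB between N-terminal EYFP and C-terminal Cerulean), 50 nM in PBS/1 mM DTT/0.02% Tween-20/0.1% BSA, preincubated 5 min RT with compound; 0.125 microM importin beta added, 45 min RT, CFP/YFP FRET ratio read.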
Numbers without * were called inactive; ? = inconclusive; / = not tested or not shown; & = joins results of further samples.

The opening 7 compounds, ahead of the listing:
GLA inh pH 4.5 | Rango complex inh | Molecule | miR-21 reporter | Rango dissoc inh
/ | 4.1% | Cc1nc2c(cc1N)nc(C)n2Cc1ccccc1 | 2% | -9%
0 | -1.4% | CCn1cc(CNCc2c(C(=O)N3CCCCC3)nc3c(C)cccn23)cn1 | -2% | -10%
-18 | 3.7% | CCn1cc(C(=O)NCC(=O)OC)c2cc(OC)c(OC)cc2c1=O | -14% | 6%
/ | 1.9% | Cc1cccc(CCNS(=O)(=O)c2ccc3c(c2)NC(=O)CO3)c1 | -4% | 16%
1 | 4.1% | CN(C)[C@@H]1CCC[C@@H]1OC(=O)C(c1ccccc1)c1ccccc1 | -3% | -9%
-17 | -5.2% | CCCCC1CC1C(=O)Nc1ncc2c(n1)CC(C)(C)CC2=O (stereo unspecified) | -5% | -13%
6 | 3.0% | Cc1ccccc1OCC(O)Cn1c(SC(C)C)nc2c1c(=O)[nH]c(=O)n2C (stereo unspecified) | 9% | 3%

Main list, repeating the preview:
GLA inh pH 4.5 | Rango complex inh | Molecule | miR-21 reporter | Rango dissoc inh
/ | 4.1% | Cc1nc2c(cc1N)nc(C)n2Cc1ccccc1 | 2% | -9%
0 | -1.4% | CCn1cc(CNCc2c(C(=O)N3CCCCC3)nc3c(C)cccn23)cn1 | -2% | -10%
-18 | 3.7% | CCn1cc(C(=O)NCC(=O)OC)c2cc(OC)c(OC)cc2c1=O | -14% | 6%
/ | 1.9% | Cc1cccc(CCNS(=O)(=O)c2ccc3c(c2)NC(=O)CO3)c1 | -4% | 16%
1 | 4.1% | CN(C)[C@@H]1CCC[C@@H]1OC(=O)C(c1ccccc1)c1ccccc1 | -3% | -9%
-17 | -5.2% | CCCCC1CC1C(=O)Nc1ncc2c(n1)CC(C)(C)CC2=O (stereo unspecified) | -5% | -13%
6 | 3.0% | Cc1ccccc1OCC(O)Cn1c(SC(C)C)nc2c1c(=O)[nH]c(=O)n2C (stereo unspecified) | 9% | 3%
/ | -1.6% | O=C(Cc1cccs1)Nc1ccccc1F | -22% | 2%
5 | 2.2% | O=c1cc(CN2CCCCC2)nc(C2CC2)[nH]1 | -1% | 8%
14 | 1.9% | COCCOC(=O)c1c(C)oc2ccc(O)c(CN3CCC(C)CC3)c12 | -6% | -6%

GLA inh pH 4.5 | Rango complex inh | Molecule | miR-21 reporter | Rango dissoc inh
/ | 0.8% | O=C(CCNC(=O)c1ccc(Br)cc1)NCc1ccccc1F | / | 0%
/ | -1.6% | COc1ccc(CCNC(=O)[C@H](CC(C)C)NC(=O)N2CCn3c2nc2ccccc23)cc1OC | 1% | -1%
/ | 2.5% | Cc1nc(C)c(-c2ccc(SCc3ccccc3F)nn2)s1 | -68% | 0%
2 | -0.2% | O=C1c2cccnc2C(=O)N1c1cccc(-c2nc3ccccc3o2)c1 | -19% | -5%
/ | 1.9% | CCOC(=O)c1nc(C(=O)NCc2ccc(C)cc2)nc2ccccc12 | / | 1%
-13 | 3.2% | Fc1ccc(C2NCCn3cccc32)cc1 (stereo unspecified) | -1% | 6%
/ | 0.7% | CCN(Cc1ccc(OC)c(F)c1)C(=O)c1oc2ccccc2c1COC | -40% | 12%
6 | -4.8% | Cc1noc(C)c1CSCC(=O)OCC(=O)Nc1sccc1C#N | -2% | -9%
/ | -1.4% | Cc1nnc(CN(C)C(=O)c2cc(COc3ccc(F)cc3Cl)on2)o1 | -65% | 2%
/ | -1.0% | Cc1cc(NC(=O)CCC(=O)N(CC(=O)NCC2CCCO2)c2ccc(C(C)C)cc2)no1 (stereo unspecified) | -8% | -5%

GLA inh pH 4.5 | Rango complex inh | Molecule | miR-21 reporter | Rango dissoc inh
/ | -0.1% | O=C(CS(=O)(=O)c1ccccc1)c1ccc2c(c1)OCCO2 | -25% | 3%
7&-3 | ? | CC1(OC(=O)C2CCCC2)C(=O)C=C2C=C(c3ccsc3)N(c3ccccc3)C=C2C1=O (stereo unspecified) | -14% | -23%
/ | -0.7% | Cc1cccc(NS(=O)(=O)c2nnc(NC(=O)c3ccccc3F)s2)c1 | -14% | 15%
/ | 0.7% | CCc1noc(C)c1C(=O)NCCN1C(=O)S/C(=C\c2ccc(OC)cc2)C1=O | / | -15%
-9 | 6.8% | COc1ccc(Nc2nc(N3CCCC3)nc3ccccc23)c(OC)c1 | 22% | -4%
-9 | -3.7% | CC(=O)Nc1ccc(Nc2nc(-c3ccccc3)nc3ccccc23)cc1 | ? | 1%
-11 | 3.4% | CCN(CC)C(=O)C1CCCN(Cc2ccccc2C(F)(F)F)C1 (stereo unspecified) | -1% | 4%
1 | -0.4% | Cc1cccc(C(=O)Nc2ccc(O)cc2)c1 | -45% | -5%
/ | 1.3% | CCCCN(CCCNC(=O)c1ccc(CS(=O)(=O)c2ccc(OC)cc2)o1)Cc1ccccc1 | -1% | 5%
0 | -0.1% | COc1ccc(NC(=O)CCCN2C(=O)/C(=C\c3ccco3)SC2=S)cc1 | 15% | 1%

GLA inh pH 4.5 | Rango complex inh | Molecule | miR-21 reporter | Rango dissoc inh
2 | -3.1% | Cc1nn(CCC(=O)NNC(=S)Nc2ccc(F)cc2)c(C)c1[N+](=O)[O-] | -9% | 11%
-5&2&1&-4 | -2.4% | Nc1ccc(S(=O)(=O)Nc2ccnn2-c2ccccc2)cc1 | 3% | 2%
5 | 2.4% | CCN(CC)S(=O)(=O)c1ccc(C(=O)NCC(c2cccs2)N2CCOCC2)cc1 (stereo unspecified) | -6% | -1%
0&1 | 1.2% | COC(=O)c1cccc(C23CC4(C2)[C@H](CN(Cc2ccc(C(F)(F)F)cc2)[C@@H]4c2ccccc2)C3c2ccc(C(F)(F)F)cc2)c1 (stereo partly specified) | 27% | 1%
/ | -0.3% | O=C(N/N=C/c1cccnc1)c1ccc(Cl)c(Cl)c1 | / | -15%
-20 | / | Cc1nc2cc(-c3cccc(Cl)c3)nn2c(N2CCN(C(=O)c3ccco3)CC2)c1C | -40% | /
/ | 0.2% | Cc1ccc(-n2ncc3c(NCc4cccnc4)ncnc32)cc1C | -19% | 2%
5 | -1.2% | O=S(=O)(c1cccc2cccnc12)N1CCN(c2ccc(F)cc2)CC1 | -10% | 6%
/ | ? | O=C(NCC1CCCCC1)c1cc2ccccc2cc1O | -18% | ?
/ | 0.9% | CCN(CC)CCn1c2c(c(SCC(=O)Nc3nc(C)cs3)nc1=O)CCCC2 | / | -17%

GLA inh pH 4.5 | Rango complex inh | Molecule | miR-21 reporter | Rango dissoc inh
? | -2.1% | Cc1ccc(-c2cc(C(=O)N/N=C\c3cnn(C)c3C)c3ccccc3n2)cc1C | -8% | -2%
-10 | 3.0% | O=C(CCC(=O)N1CCCC1)Nc1ccc([N+](=O)[O-])cc1 | -4% | 9%
2 | ? | CCN1/C(=C2\SC(=S)N(Cc3ccccc3)C2=O)Sc2ccccc21 | -1% | ?
-6 | 0.1% | O=C(NCc1ccc2c(c1)OCO2)c1cc2ncc(Br)cn2n1 | -7% | 8%
2 | ? | O=C(O)c1cc(-c2ccc(/C=N/NC(=S)Nc3ccccc3)o2)ccc1Cl | -15% | 0%
2 | -3.2% | CCOC(=O)c1[nH]c(C)c(CN(CCc2ccccc2)C(=O)CCC(=O)O)c1C | -7% | 3%
-26 | ? | Cc1ccc(-c2cc(C(=O)Nc3ccccn3)c3ccccc3n2)o1 | 6% | -24%
-2 | -0.2% | COCCn1c(SCC(=O)Nc2cccc(C)n2)nnc1-c1ccco1 | -1% | ?
4 | -1.6% | CCOc1ccc(C(=O)NC(=S)Nc2ccccc2OC)cc1[N+](=O)[O-] | -9% | -7%
/ | 0.8% | COc1ccc(CCNC(=O)CSc2nc3sc(C(=O)O)c(C)c3c(=O)[nH]2)cc1OC | 10% | -7%

Gathered by group: the compounds so far containing a CF3 group.
GLA inh pH 4.5 | Rango complex inh | Molecule | miR-21 reporter | Rango dissoc inh
-11 | 3.4% | CCN(CC)C(=O)C1CCCN(Cc2ccccc2C(F)(F)F)C1 (stereo unspecified) | -1% | 4%
0&1 | 1.2% | COC(=O)c1cccc(C23CC4(C2)[C@H](CN(Cc2ccc(C(F)(F)F)cc2)[C@@H]4c2ccccc2)C3c2ccc(C(F)(F)F)cc2)c1 (stereo partly specified) | 27% | 1%

(next part)
GLA inh pH 4.5 | Rango complex inh | Molecule | miR-21 reporter | Rango dissoc inh
7 | -0.1% | COc1ccc2[nH]c(=O)c(CN(Cc3ccccc3)C(=S)NCC3CCCO3)cc2c1 (stereo unspecified) | -1% | -10%
4 | 0.0% | CCO[C@H]1OC(C(=O)Nc2ccccc2)=C[C@@H](C)[C@@H]1CCCO | -32% | 5%
7 | -3.8% | CCCn1c(SCC(=O)Nc2nnc(C(C)C)s2)nc2c1c(=O)n(C)c(=O)n2C | -4% | 0%
2 | 2.9% | CC1(C)C2CCC1(CS(=O)(=O)NCc1ccc(C(=O)O)cc1)C(=O)C2 (stereo unspecified) | -3% | 20%
7 | -0.7% | CCNC(=O)NC1(C(=O)Nc2ccc3c(c2)OCCO3)CCCCC1 | 9% | -9%
/ | -0.4% | O=[N+]([O-])c1ccc(S(=O)(=O)NNC(=S)NCCc2ccccc2)cc1 | -6% | 1%
1 | -0.3% | CC1(C)C(=O)OC(c2ccccc2)C2(CCCC2)C1=O (stereo unspecified) | -3% | 3%
7 | -1.3% | CCOC(=O)C1=NN(c2ccccc2C)C2=NC(C)=C(C(=O)OC)C(c3cccc(OC)c3)N12 (stereo unspecified) | -9% | -20%
-6 | 10% | COc1ccc(NC(=O)CCN2C(=O)c3ccccc3S2(=O)=O)c(OC)c1 | 1% | -8%
-2 | 1.0% | O=C(O)C1CC(=O)N(CCOc2ccccc2)C1 (stereo unspecified) | -8% | 14%

GLA inh pH 4.5 | Rango complex inh | Molecule | miR-21 reporter | Rango dissoc inh
/ | -1.5% | COc1ccc(CN2CCCN(C)CC2)c(OC)c1C | 3% | -7%
/ | -1.8% | CC(=O)Nc1cccc(NC(=O)C(=O)NCC(c2ccco2)N2CCc3ccccc32)c1 (stereo unspecified) | / | -15%
/ | -0.7% | COc1ccccc1C(=O)NC(=O)COC(=O)CNC(=O)c1ccccc1F | / | 2%
5 | -1.2% | COC(=O)CN(c1ccc(C(C)C)cc1)S(=O)(=O)c1c(C)[nH]c(=O)[nH]c1=O | 1% | 2%
4 | -0.4% | C=CCn1c(=NC(=O)CC)n(C)c2ccccc21 | 2% | -3%
11 | ? | CCCOC(=O)c1ccc(Oc2coc3c(CN(CC)CC)c(O)ccc3c2=O)cc1 | -12% | -14%
-4 | -1.6% | COc1ccc(Cc2noc(CN(C)CC(O)c3ccccc3)n2)cc1OC (stereo unspecified) | -8% | 9%
/ | 4.2% | COc1ccc(C2NC(=O)CCC2[N+](=O)[O-])cc1 (stereo unspecified) | 0% | -10%
/ | -3.4% | CC1CCc2c(c3ccccc3n2C(=O)CCl)C1 (stereo unspecified) | 1% | -7%
-1 | 0.9% | COCCn1c(=S)[nH]c2cc(C(=O)NCC3CCCO3)ccc2c1=O (stereo unspecified) | 5% | 7%
0 | 3.3% | CCC(C)C(NC(=O)c1ccccc1NC(=O)c1ccco1)C(=O)NC1CCCCC1 (stereo unspecified) | -3% | 10%
/ | 0.2% | O=C(NC1CC1)c1cccc(S(=O)(=O)N2CCOCC2)c1 | / | 9%

Screening data from PubChem BioAssay.

These rows are one share of the data; rates above refer to the full screens.
